MgrA DNA FP = modulators of Staphylococcus aureus MgrA DNA binding; fluorescence polarization; inhibition, %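 (about 10 µg/mL by stock and volumes)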; hit rate 0.13% among 84,000; AID 602314;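 active = above 50% in either of two replicates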;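 also: 0% = protein plus DNA without compound and 100% = DNA alone without protein; higher means less MgrA bound to DNA so lower polarization; one replicate is shown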
Sa helicase inh = blocks Staphylococcus aureus DNA helicase; purified S. aureus helicase, fluorescence unwinding assay; about half of the hits fall short of the stated cut; hit rate 0.05% among 120,000; inhibition, %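 (tested at about 80 µM)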;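 active = both duplicates at 50% or more, or one of them with a favoured structure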;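 also: 0% = mean of negative control wells and 100% = mean of positive control wells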
An asterisk follows results filed as active; / = no result given; & = joins results of further samples. This is a subset (hit frequency here may not be typical).

Structure,MgrA DNA FP,Sa helicase inh
CCCn1c(N)c(C(=O)CSc2nc3cc(Cl)ccc3c(=O)n2C2CCCC2)c(=O)[nH]c1=O,/,1
CC1CCCN(C(=O)COC(=O)c2ccc(Cl)nc2)C1 (stereo unspecified),-1.1,-5
CCc1ccc(NC(=O)CCS(=O)(=O)c2cccc3nonc23)cc1,0.1,10
CC(=O)Nc1ccc(CN2CCCCC2)cc1,1.7,0
CCN(CC)c1ccc(C(=O)Nn2c(-c3cc(OC)cc(OC)c3)nc3ccccc3c2=O)cc1,3.2,/
CN(C)S(=O)(=O)c1cccc2nsnc12,1.2&-0.7,-20&3
CC1CCCC(C)N1CC(O)COc1ccc(Cl)cc1 (stereo unspecified),/,-5
COc1ccccc1CNc1ccc(CNc2ncn[nH]2)cc1,/,6
CC(=O)N1CCC(C(=O)Nc2nc(-c3ccccc3)ns2)CC1,/,0
CC(=O)Nc1ccc(OCc2ncc(C(F)(F)F)cc2Cl)cc1,-1.6,/
O=C(Cc1c(O)c2ccccc2oc1=O)c1ccccc1O,0.9,/
CC1CC(C)CN(c2cnn(-c3ccccc3)c(=O)c2Cl)C1 (stereo unspecified),/,5

Structure,MgrA DNA FP,Sa helicase inh
Cc1cccc(-n2ncc3c(NC(C)(C)C)ncnc32)c1,/,20
N#CCc1nc(-c2ccc(Cl)c(Cl)c2)cs1,-5.2,/
CC1=CC(=C(C#N)C#N)C=C(C)N1c1cccc(F)c1,/,-16
CC(C)NC(=O)OCc1noc(-c2ccc(Cl)cc2)n1,-3.2,/
COc1cc(/C=C/C(=O)OC2CCCCC2=O)cc(OC)c1OC (stereo unspecified),/,-11
CCOc1cc(N2CCOCC2)c(OCC)cc1NC(=O)CSc1ccccc1C(=O)O,/,-145
O=C(C/C(=C1/CCc2ccccc2C1=O)c1ccccc1)c1ccccc1,1.2,/
CNCCC(Oc1ccc(C(F)(F)F)cc1)c1ccccc1 (stereo unspecified),-0.9&2.2,/
CCn1c(CC(=O)Nc2ccccc2)n[nH]c1=S,-2.6,7
Cc1ccc(NC(=O)/C(C#N)=N/Nc2ccc(S(=O)(=O)Nc3ncccn3)cc2)cc1C,/,15
Cc1nnc(SCC(=O)c2ccc(F)cc2)o1,0.8,20
COC(=O)c1c(-c2snnc2C)n[nH]c1C,-5.1,/

Among those listed so far, 3 contain a cyano group:
Structure,MgrA DNA FP,Sa helicase inh
N#CCc1nc(-c2ccc(Cl)c(Cl)c2)cs1,-5.2,/
CC1=CC(=C(C#N)C#N)C=C(C)N1c1cccc(F)c1,/,-16
Cc1ccc(NC(=O)/C(C#N)=N/Nc2ccc(S(=O)(=O)Nc3ncccn3)cc2)cc1C,/,15

More structures:
Structure,MgrA DNA FP,Sa helicase inh
CC1Cc2ccccc2N1C(=O)CN1CCN(c2ccc(C(F)(F)F)cn2)CC1 (stereo unspecified),/,20
O=C(NCc1c(-n2cccc2)sc2c1CCCC2)NC12CC3CC(CC(C3)C1)C2,/,12
C=CCc1nc(C)c(CC(=C)C)c(=O)[nH]1,/,10
CCOc1ccc(-n2ccc3nc(C)c(C(=O)O)cc3c2=O)cc1,/,-2
N#CNC1=NCN(CCCN2CCOCC2)CN1,-1.6,2
COc1ccc(-c2noc(COC(=O)c3cccc(OC(F)F)c3)n2)c(OC)c1,/,12
Nc1c(S(=O)(=O)Cc2ccccc2)sc2nc3c(cc12)CCCC3,-3.4,21
O=C(CCc1nnc2ccc(N3CCCCC3)nn12)NCCc1c[nH]c2ccccc12,/,-24
COc1ccc2[nH]c3c(=O)n(CCc4ccc(Cl)cc4)cnc3c2c1,0.7,2
O=C(Nc1ccc2ccccc2c1)c1ccccc1O,1.1,11
Cc1cc(S(=O)(=O)NCCNc2nccc(C(F)(F)F)n2)c(C)cc1Cl,1.9,/
CCc1ccc(N2Cc3ccccc3C2)cc1,/,-3

Structure,MgrA DNA FP,Sa helicase inh
CCn1c(=O)c(C)nc2cc(C(=O)O)ccc21,/,5
CCOC(=O)[C@@H](N)Cc1c[nH]c2ccccc12,-0.4,/
CC1CCCN(C(=O)C2CCN(CC3CCCCC3)CC2)C1 (stereo unspecified),-11,19
O=C(CCS(=O)(=O)c1cccs1)N1CCCC1,/,6
Cc1ccc(OCc2nc(C#N)c(NCCCN3CCOCC3)o2)cc1,2.0,17
COc1ccc(CCNC(=O)CSc2c3c(nc4cc(Cl)ccc24)CCCC3)c(OC)c1,0.0,5
O=C1c2ccccc2C(=O)N1c1ccc(OC(F)(F)F)cc1,2.5,-12
COC(=O)c1cc(C(=O)OC)c2ccccc2n1,3.4,/
COc1ccc(CCNC(=O)OC(C)(C)C(C)=O)cc1OC,-0.9,/
C=CCSc1nc(N)c(C(=O)Nc2ccccc2)cc1C(N)=O,-3.0,-4
CCC(C)(C)NS(=O)(=O)c1ccccc1OC,/,-4
CC(=O)Nc1cccc(N2C(=O)CCC2=O)c1,9.4,3

Structure,MgrA DNA FP,Sa helicase inh
COc1ccccc1OCCNc1ncnc2sccc12,/,-12
COc1ccc(S(=O)(=O)Nc2c(O)c3ccccc3oc2=O)cc1OC,-5.7,4
CCCc1c(O)nc(SCCC(=O)O)[nH]c1=O,/,-23
CCCCN1C(=O)S/C(=C/c2ccc(OC)cc2)C1=O,/,6
CCOC(=O)c1ccc(NC(=O)CSc2ccc(C(F)(F)F)cc2[N+](=O)[O-])cc1,3.3,/
Cc1nc2cc(CO)ccc2n1-c1ccccc1,/,21
CCSCCOC(=O)C1=C(C)NC2=C(C(=O)CC(c3ccccc3)C2)C1c1ccc(N(C)C)cc1 (stereo unspecified),-0.1,/
O=C(Nc1ccc(C(=O)OC2CCCCC2)cc1)c1ccncc1,-1.9,3
Cc1cccc(Nc2nc3nonc3nc2N/N=C\c2cccs2)c1C,2.3,1
NC(=S)Cc1ccc(-c2csnn2)cc1,/,6
O=C1CSC(c2cccnc2)N1Cc1cccs1 (stereo unspecified),0.0,/
CC(C)(C)c1ccc(OCCCSC#N)cc1,2.0,3

Structure,MgrA DNA FP,Sa helicase inh
CC(C)(C)NC(=O)N1CCn2cccc2C1c1cccnc1 (stereo unspecified),/,17
C=CCN1CN(CC=C)CN(CC=C)C1,-1.7,4
C=CCOc1ccc(/C=C2\C(=O)N(c3ccc(Cl)c(C(=O)O)c3)N=C2C)cc1OC,4.5,17
CC1CCN(C(=O)c2cnn3ccccc23)CC1,/,4
N/C(Cc1cccc2ccccc12)=N\OC(=O)c1ccc(Br)o1,8.7,2
O=C1/C(=C/c2cccnc2)c2ccccc2N1c1ccccc1,/,14
CCN1C(=O)c2cccc3c(N)ccc1c23,/,14
CCN(C(=O)CSc1nc2ccccc2n1CCC#N)C1=CCCC1,/,-6
NC12CC3CC(C1)CC(c1ccccc1)(C3)C2,-1.7,15
COC(=O)C1CSC(c2ccc(Cl)cc2)=CC1N(C)C (stereo unspecified),0.6,/
CCCN1CCN(C(=O)C2COc3ccccc3O2)CC1 (stereo unspecified),/,-20
Cc1ccc(C(=O)C2Sc3nnc(C)n3NC2c2ccc(Cl)cc2)cc1 (stereo unspecified),/,-8

Structure,MgrA DNA FP,Sa helicase inh
Cc1n[nH]c(C)c1Cc1ccc(C(=O)O)cc1,/,7
CCc1ccc(Cn2ncc3c(C(=O)O)cc(C)nc32)cc1,/,-17
CCOC(=O)c1c(/N=c2\oc3ccc4ccccc4c3cc2C(N)=O)sc2c1CCCC2,2.9,6
COc1ccc(/C=C/c2nc3sc4c(c3c(=O)o2)CCCC4)cc1,1.4,/
COC(=O)c1ccc(-c2ccco2)n1CC(=O)NCCN1CCN(C)CC1,-1.5,9
CC(C)(C)c1ccc(NC(=O)c2cnccn2)cc1,0.6,/
N/C(CSc1cccs1)=N\OC(=O)c1cc(C(F)(F)F)cc(C(F)(F)F)c1,5.7,/
CC(C)(C)n1nnnc1C(c1ccc2ncccc2c1)N1CCc2ccccc21 (stereo unspecified),-2.4,7
O=C(Cn1c(=O)n(-c2ccccc2)c(=O)c2cc(-c3ccccc3)sc21)c1cccs1,0.7,/
CCOC(=O)C1=C(c2ccccc2)N2CCS(=O)(=O)N=C2S1,/,-11
Cn1c(O)c(/C=C2\C=Nc3ccccc32)sc1=S,/,-25
CCC(Sc1nccn1C)C(=O)Nc1ccc(S(N)(=O)=O)cc1 (stereo unspecified),/,9

smiles	MgrA DNA FP	Sa helicase inh
O=C(Cc1ccccc1)NN1C(=O)c2ccccc2C1=O	0.9	-3
Cc1nc2ccccn2c1C(=O)NC1CCCC1	2.5	-2
CC1CC(C)CN(C(=O)CSc2nnc(-c3ccc4c(c3)OCO4)n2-c2ccccc2)C1 (stereo unspecified)	/	-16
CC1C2CC(C/C2=N/O)C1(C)C (stereo unspecified)	/	27
N#CCCN1CCN(Cc2ccccc2)CCC1=O	-2.0	0
CCCN(CCC)c1ccc(/C=N/NC(=O)OCC)cc1	2.8	/
O=C(Nc1ccc(F)cc1)c1c(Cl)nc2ccccn12	-11	5
Cc1[nH]c2ccccc2c1/C=N/NC(=O)CN1CCSCC1	-6.8	/
O=C(Nc1ccccc1)N1CCCN(c2nccc(C(F)(F)F)n2)CC1	/	11
CCOc1ccc2nc(SCC(=O)O)c(C)cc2c1	0.8	10
Cc1cc(C)c(NC(=O)CS(=O)CC(=O)N2CCN(c3ccccc3)CC2)c(C)c1 (stereo unspecified)	-1.4	9
COc1ccc(-c2ccc(CCC(=O)O)n2C(C)C)cc1	-0.3	12
COC(=O)Cn1[nH]c(=O)c2ccccc2c1=O	/	1
O=c1[nH]c(CN2CCN(S(=O)(=O)c3ccccc3C(F)(F)F)CC2)nc2scc(-c3cccs3)c12	/	9
COC(=O)c1ccc(CSc2ccccc2C)o1	1.6	3
CNCC(O)COc1ccccc1 (stereo unspecified)	0.3	8
Cn1cccc1C(=O)Nc1cccc(C(F)(F)F)c1	/	1
N#CCCN(C(=O)c1ccccc1Cl)C1CCCCC1	0.5	/
Nc1nc(CSc2nc3ccccc3s2)nc(Nc2ccccc2)n1	4.7	6
Cc1nn(C)c(C)c1Nc1cnn(-c2ccccc2)c(=O)c1Cl	/	3
O=C(Nc1ccc2ccccc2n1)c1ccccc1	0.9	/
CS/C(Nc1ccccc1)=C(/C#N)S(=O)(=O)c1ccc(C)cc1	-1.9	/
C=C(C)Cc1c(COC)nc(SCC(=O)C(C)(C)C)[nH]c1=O	-3.2	/
CCN(CC)c1nc(N2CCOCC2)nc2ccccc12	0.3	-8
Cc1ccc2nc(NC(=O)C3CC(O)CN3C(=O)Oc3ccccc3)sc2c1 (stereo unspecified)	-1.1	0

Whole records from above. Order of values: MgrA DNA FP, Sa helicase inh
CCOc1ccc2nc(SCC(=O)O)c(C)cc2c1 is entered as 0.8, 10
CNCC(O)COc1ccccc1 (stereo unspecified) is entered as 0.3, 8
O=c1[nH]c(CN2CCN(S(=O)(=O)c3ccccc3C(F)(F)F)CC2)nc2scc(-c3cccs3)c12 is entered as /, 9
N#CCCN(C(=O)c1ccccc1Cl)C1CCCCC1 is entered as 0.5, /
CS/C(Nc1ccccc1)=C(/C#N)S(=O)(=O)c1ccc(C)cc1 is entered as -1.9, /

Further records follow.
smiles	MgrA DNA FP	Sa helicase inh
CCN1C(=O)c2cccc3c(S(=O)(=O)Nc4ccccc4)ccc1c23	0.2	10
N#CC1=C(c2ccccc2)C(c2ccccc2)OC1=O (stereo unspecified)	-4.3	22
Clc1ccc(CSc2nnc(COc3ccccc3)o2)cc1	/	21
O/N=C/c1nn(-c2ccccc2)cc1Br	-2.3	/
O=C(Oc1ccc(C=Nc2ccc(F)c(F)c2F)cc1)c1cccnc1	-0.5	3
CC1=C(O)C(=O)C(/C=N/NC(N)=O)C1 (stereo unspecified)	/	25
Cc1cc(C)nc(N(C#N)CN2C(=O)c3ccccc3S2(=O)=O)n1	0.5	/
Cc1csc(Nc2ccc(Cl)cc2)n1	0.3	1
CC(C)CN(CC(C)C)C(=O)c1noc2c1CC(C)CC2 (stereo unspecified)	/	16
Cc1ccc(C(=O)OCC(=O)NCc2ccc3c(c2)OCO3)cc1S(=O)(=O)N1CCOCC1	/	10
CC(=O)CC(c1ccccc1)c1c(O)c2ccccc2oc1=O (stereo unspecified)	-0.2	/
Cc1ccc2c(c1)NCC(C(=O)NCc1ccccc1)O2 (stereo unspecified)	/	9
CNC(=O)N(C1=NCCCCC1)c1ccc(C)cc1	/	7
Cc1nnc(COc2ccccc2C#N)o1	/	-2
O=C1CCN(Cc2ccccc2)C(=O)N1c1ccccc1	-3.2	/
CC1CN(c2nn3c(=O)c4ccccc4nc3c3ccccc23)CC(C)O1 (stereo unspecified)	/	20
N#Cc1c2n(cnc1=O)CCCCC2	1.3	12
CC(C)CCNS(=O)(=O)c1ccc2[nH]c3c(c2c1)CCCC3	1.4	-2
COc1ccccc1C(=O)Nc1ccc(C)cc1C	-2.1	-2
COc1cccc(CNCCCN2CCOCC2)c1OCc1ccc(F)cc1	-6.0	-7
CCCCCOC(=O)C1=C(C)N(C)C(=O)NC1c1ccc(OCc2ccccc2)cc1 (stereo unspecified)	-1.1	/
Cc1cccc(CN2CCN(CC(=O)NC3CCCCCC3)C2=O)c1	/	37
O=C1/C(=C\c2ccccc2)SC(=S)N1CN1CCCCC1	5.0	/
CC(C)(Oc1ccc(Cl)cc1)C(=O)Nc1nnc(C(F)(F)F)s1	/	32
Cc1ccc(OCCC(=O)O)cc1	/	-7&-7

smiles	MgrA DNA FP	Sa helicase inh
COc1ccc(/C=C/C(O)=C(\C#N)c2nnc(N3CCOCC3)n2-c2ccccc2)cc1OC	/	3
NC1=NC(=O)/C(=C\c2ccc(-c3ccc(Cl)c([N+](=O)[O-])c3)o2)S1	-1.1	/
COC(=O)Oc1cncc(C(=O)O)c1	/	8
Cc1nc2ccccc2c(=O)n1-c1nc2ccccc2n1C	-0.4	-5
